# RE007 growth inh = less growth of the S. pombe RE007 Vpr strain; 360,000 compounds, 0.21% hits; Potency, µM (top dose mostly 92.2 µM), inactives show at the top dose activity change, negative = less growth; AID 651644; S. pombe RE007 Vpr strain, BacTiter-Glo ATP luminescence, 24 h; control for the full effect not named in the record; active = well fitted falling curve with a large enough effect; inconclusive = small, poorly fitted or top-dose-only effect; inactive = no such curve, though single readings can be large or run the other way;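 note: % is set by controls: 0 for no effect and ±100 for the full control effect; nearly all actives have a fitted effect of over 50% in size; the assay follows cell death caused by Vpr and the record does not say whether a fall means rescue or toxicity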
#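 Fission yeast strain RE007, carrying one chromosomally integrated HIV-1 vpr copy, was seeded at OD 0.01 in PMG+AL medium with 23 nL pinned compound. After 24 h at 30 °C and 99% humidity, viability was read by BacTiter-Glo luminescence.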
# SARS PLpro yeast = blocks SARS-CoV papain-like protease in a yeast assay; Potency, µM (doses to about 32.9 µM), for the others: at the top dose activity, positive = growth rescue; 330,000 compounds, 0.19% hits; S. cerevisiae expressing SARS-CoV PLpro, growth rescue; control for the full effect not named in the record; active means well fitted rising curve with a large enough effect; inconclusive means small, poorly fitted or top-dose-only effect; inactive means no such curve, though single readings can be large or run the other way; note: 0% is about no effect; nearly all actives have a fitted effect of over 55% in size; growth read by luminescence after 48 h
# StopGo reporter = FMDV 2A StopGo reporter, luciferase signal. human cells with a luciferase reporter of 2A StopGo recoding; control for the full effect not named in the record. Potency, µM (highest dose often 57.9 µM), without a hit: top-dose signal change, negative = less light. 410,000 compounds, 1.2% hits. AID 1159524; active = well fitted falling curve with a large enough effect; inconclusive = small, poorly fitted or top-dose-only effect; inactive = no such curve, though single readings can be large or run the other way; tested in HEK293T cells; note: % is set by controls: 0 for no effect and ±100 for the full control effect; nearly all actives have a fitted effect of over 45% in size; luciferase light after 4 h
# LASV entry inh = blocks Lassa virus binding to or entry into cells; 300,000 compounds, 1.2% hits; Lassa virus pseudotype entry inhibition, cell reporter; control for the full effect not named in the record; AID 540256; Potency, µM (series often up to 37.9 µM), without a hit: at the top dose activity change, negative = inhibition, actives largely listed as inhibitors; active means well fitted inhibition curve with a large enough effect; inconclusive means small, poorly fitted or top-dose-only effect, or effect the other way; inactive means flat fitted curve, though single readings scatter; tested in HEK293 cells; note: % is set by controls: 0 for no effect and ±100 for the full control effect; nearly all actives have a fitted effect of over 50% in size; luciferase read-out
# NS1 inh = inhibitors of influenza NS1 protein function; S. cerevisiae slowed by influenza A NS1, growth recovery by OD600; Potency, µM (highest dose often 46.1 µM), for inactives: at the highest dose activity, positive = more growth; 270,000 compounds, 0.4% hits; AID 2326; active means well fitted rising curve with a large enough effect; inconclusive means small, poorly fitted or top-dose-only effect; inactive means no such curve, though single readings can be large or run the other way; note: nearly all actives have a fitted effect of over 50% in size
#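 Read-out: OD600 growth recovery of NS1-expressing budding yeast. Cells grown overnight at 30C in -URA glucose medium, washed, resuspended and diluted 1:100 in 2% galactose assay medium, pH 6.0. Same strain lacking NS1 served as positive control.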
# Cruzain inh noDet = cruzain (T. cruzi) inhibition without detergent; AID 1476; purified cruzain, Z-FR-AMC fluorescence, no detergent; P25779; 200,000 compounds, 2.3% hits; Potency, µM, for the others: max response, negative = inhibition, actives largely listed as inhibitors;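 note: plate controls were enzyme without inhibitor for no effect and buffer without enzyme for full effect; nearly all actives have a fitted effect of over 40% in size; top concentration of the series not given in the record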
# Target sequence (P25779 123-467 limits assumed): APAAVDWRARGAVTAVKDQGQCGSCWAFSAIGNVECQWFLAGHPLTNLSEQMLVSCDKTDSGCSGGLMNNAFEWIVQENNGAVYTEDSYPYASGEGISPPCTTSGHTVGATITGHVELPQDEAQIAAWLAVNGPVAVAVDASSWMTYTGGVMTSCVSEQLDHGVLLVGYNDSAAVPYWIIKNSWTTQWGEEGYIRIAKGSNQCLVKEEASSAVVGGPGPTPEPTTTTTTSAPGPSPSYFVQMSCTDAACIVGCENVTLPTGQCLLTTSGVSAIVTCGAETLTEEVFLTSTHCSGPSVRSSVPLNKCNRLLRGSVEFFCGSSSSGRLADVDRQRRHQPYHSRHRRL
#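 Detergent-free condition (0.00005% Triton X-100) in acetate buffer pH 5.5 with DTT. 1.5 nM enzyme and compound were pre-mixed 15 min, then 2 uM Z-FR-AMC substrate added; reaction progress from fluorescence change between first and third reads (60 s).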
# Cruzain Triton = blocks cruzain activity in presence of Triton detergent; purified cruzain, Z-FR-AMC fluorescence, 0.01% Triton; 200,000 compounds, 0.43% hits; Potency, µM, for inactives: max response, negative = inhibition, hits mostly inhibitors;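 note: plate controls were neutral wells for no effect and buffer without enzyme for full effect; nearly all actives have a fitted effect of over 40% in size; top concentration of the series not given in the record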
#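 Detergent-containing run (0.01% Triton X-100) in acetate buffer pH 5.5 with 5 mM DTT: enzyme at 1.5 nM final, 15 min compound preincubation at room temperature, then 2 uM Z-FR-AMC substrate. Activity taken as 60 s fluorescence increase at 360/450 nm.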
# Marburg entry inh = inhibitors of Marburg virus binding or cell entry; Marburg virus pseudotyped entry inhibition, cell reporter; control for the full effect not named in the record; about a third of the inactives were read at about 46 µM; Potency, µM (series often up to 37.8 µM), without a hit: at the highest dose activity change, negative = inhibition, usual class: inhibitors; 300,000 compounds, 1.8% hits; active = well fitted inhibition curve with a large enough effect; inconclusive = small, poorly fitted or top-dose-only effect, or effect the other way; inactive = flat fitted curve, though single readings scatter; tested in HEK293 cells; about a fifth of its hits are not listed in these tables; note: % is set by controls: 0 for no effect and ±100 for the full control effect; luciferase read-out
# The depositor's hits bear a star; u = inconclusive; x = not tested or not shown; & = joins results of further samples; [ ] = another dose, or the depositor's remark. Unless noted, calls come from the whole dose curve; as a rule, active = well fitted curve in the direction sought with a large enough effect; inconclusive = small, poorly fitted or top-dose-only effect, or another doubt; inactive = no such curve, though single readings can be large; an effect the other way counts as inactive or inconclusive. Potency is the fitted concentration of half-maximal effect.
SMILES,RE007 growth inh,SARS PLpro yeast,StopGo reporter,LASV entry inh,NS1 inh,Cruzain inh noDet,Cruzain Triton,Marburg entry inh
CCC(=O)NNc1cc(=O)c2c(=O)n(C)c(=O)n(C)c2[nH]1,-3%,0%,-14%,2%,-12%,1%,3.2%,1%
O=C(Nc1ccc(S(=O)(=O)N2CCCC2)cc1)c1cccnc1Cl,-13%,-5%,-6%,-19%,x,x,x,1%
C=C(C)COc1ccc(-c2ncncc2-c2ccc(Cl)cc2)c(O)c1,-4%,-3%,u,x,-12%,x,x,x
CCOc1ccc(NC(=O)N(C2CCCC2)C2CCN(C(C)=O)CC2)cc1,-16%,-2%,-10%,11%,x,x,x,13%[46.1 µM]
COc1ccc(Cc2nnc(NC(=O)Cn3cnc4c3c(=O)n(C)c(=O)n4C)s2)cc1,-4%,-3%,-18%,u,28%,13%,-0.9%,6%
CCN1CCN(c2ccc(S(=O)(=O)N3CCCCC3)cc2NC(=O)/C=C/c2ccc(F)cc2)CC1,2%,-26%,0%,-15%[46.1 µM],x,x,x,u
O=c1c2cn[nH]c2nc(SCc2c(F)cccc2F)n1-c1ccc(Cl)cc1,2%,-6%,-9%&-5%,u,x,-4%,0.0%,u
COCc1c(CCl)cnc(C)c1O,16%,-2%,-12%,x,-4%,x,x,x
O=c1c2c(nc3cc(-c4ccc(F)cc4)[nH]n13)CCCC2,12%,-1%,-23%,u,5%,4%,0.6%,u
Cc1ccc(NC(=O)Cn2cc(C(=O)C3CC3)c3ccccc32)cc1C,x,x,u,18%[46.1 µM],x,8%,-0.3%,u
Cc1ccc(NC(=O)CCc2ccc(C)o2)c(C)c1,-4%,-4%,13%,x,-5%,x,x,x
CC1=NNC(=O)C1C(c1ccc(F)cc1)C(C#N)C#N (configuration not stated),0%,x,0%,2%,x,x,x,1%
Cc1cccc(OCC(O)Cn2c(N3CCCCC3)nc3c2c(=O)[nH]c(=O)n3C)c1 (configuration not stated),12%,-3%,-11%,18%[46.1 µM],-1%,x,x,16%[46.1 µM]
Cc1cccc(NC(=O)Nc2nnc(N(C)C3CCCCC3)s2)c1C,x,x,15%,u,x,u,-11%,u
Cc1cc(C)c2sc(NC(=O)c3ccc(S(=O)(=O)N4CCCC4)cc3)nc2c1,x,x,u,3%[46.1 µM],x,5%,4.1%,x
CCC1CCCCN1CCCNC(=O)c1[nH]c2ccccc2c1Sc1ccc(Cl)cc1 (configuration not stated),x,x,-19%,-4%[46.1 µM],x,10%,-6.8%,1%[46.1 µM]
Cc1ccc2cc(CN(C(=O)c3ccncc3)C(C)C)c(=O)[nH]c2c1,4%,-2%,-9%,-6%,-2%,-24%,-3.4%,-6%
O=C(COC(=O)/C=C/c1cccc(Br)c1)NCc1ccco1,-6%,4%,-2%,1%,x,x,x,-1%
CCn1cc2nc(SCc3ccccc3)n(Cc3ccc(C)cc3)c(=O)c2n1,x,x,-10%,1%[46.1 µM],x,-8%,1.7%,x
CCOc1ccc(-c2nc(N)ncc2Oc2ccc(OC)cc2)c(O)c1,4%,0%,-14%,-24%,0%,x,x,-28%
Cc1ccc(NC(=O)C2CCN(S(=O)(=O)c3c(C)noc3C)CC2)c(C)c1,x,x,-13%,-12%[46.1 µM],x,-6%,-0.1%,21%[46.1 µM]
O=C(N/N=C/c1sc(N2CCOCC2)nc1-c1ccccc1)c1ccccc1O,6%,28%,-2%,1.3µM*,u,u,-6.0%,7.9µM*
O=C(CN1C(=O)CSC1=O)Nc1ccc2c(c1)OCCO2,42%,2%,29%,4%,6%,0%,4.5%,19%
CS(=O)(=O)N1CCN(c2ccc(C(=O)NC3C4CC5CC(C4)CC3C5)cc2[N+](=O)[O-])CC1 (configuration not stated),1%,2%,25%,u,u,u,0.5%,11%
CN(C)S(=O)(=O)c1cccc(NC(=O)CCc2c[nH]c3ccccc23)c1,3%,-1%,-1%,-22%,x,x,x,u
Cc1onc(-c2c(F)cccc2Cl)c1C(=O)NC(=S)NCc1cccnc1,-13%,7%,-20%,7%,6%,-10%,-1.1%,-4%
CNC(=O)[C@H]1O[C@@H](n2cnc3c(N)ncnc32)[C@H](O)[C@H]1O,x,x,x,x,u,7%,5.2%,35%
O=[N+]([O-])c1cc(-c2nc(-c3ccccc3)no2)ccc1NCc1ccco1,x,x,66%[activator],u,x,8%,-6.1%,-11%[46.1 µM]
COc1ccc(NC(=O)N2CC(C)OC(C)C2)cc1OC (configuration not stated),-18%,3%,4%,2%,1%,-10%,10%,8%
c1ccc(CN2C3=NCCN3c3ccccc32)cc1,x,-10%,u,5%,29%,12%,2.0%,u
C/C(CCN1CCCCc2nc(C)c(C)cc21)=N\O[C@@H](C)CN1CCCCc2nc(C)c(C)cc21,x,-4%,x,u,-2%,-1%,-6.1%,u
COC(=O)c1cn(NC(=O)c2cc(OC)cc(OC)c2)c(=O)c2ccccc12,-8%,9%,-26%,-24%,-5%,16%,1.4%,u
COc1ccc(-n2c(CC3C(=O)Nc4ccc(C)cc43)nc3ccccc3c2=O)cc1 (configuration not stated),x,x,u,-12%[46.1 µM],x,13%,-7.2%,-7%[46.1 µM]
COc1cc2c(cc1OC)C(C)N(C(=O)Cn1ncc3c1-c1ccccc1OC3)CC2 (configuration not stated),-8%,10%,0%,-12%,-36%,13%,-1.0%,-21%
NCCCCCc1nnc(SCc2ccc(F)cc2)o1,x,x,3%,0%[46.1 µM],x,-2%,0.6%,5%[46.1 µM]
N#Cc1ccc(OC(=O)c2cc(-c3ccc(Cl)cc3)on2)cc1,x,x,-15%,6%[46.1 µM],x,8%,-9.0%,22%[46.1 µM]
CCCCC[n+]1ccn(C2=C([O-])c3ccccc3C(=O)/C2=N\S(=O)(=O)c2ccc(Br)cc2)c1,11%,0%,-6%,x,3%,x,x,x
CSCCC(NC(=O)c1ccccc1Cl)C(=O)N1CCCC(C)C1 (configuration not stated),-5%,x,-13%,-24%,x,x,x,3%[46.1 µM]
CC(=O)N1CCCc2cc(S(=O)(=O)N3CCCC(C(=O)N4CCN(c5cccc(Cl)c5)CC4)C3)ccc21 (configuration not stated),-7%,u,13µM*,u,u,u,-3.3%,x
Cc1ccc(S(=O)(=O)N(C)CCCC(=O)Nc2cccc3ccccc23)cc1,14%,5%,u,u,-17%,3%,-1.0%,-5%[46.1 µM]
O=C(NCCCN1CCOCC1)c1ccc(Cl)cc1Cl,11%,14%,21%,x,4%,x,x,x
CC(=O)Nc1sc(NC(=O)c2ccc(C)cc2)nc1-c1cccs1,9%,0%,12%,45%,15%,u,-2.9%,7%
CCN(c1ccc(NC(=O)COC(=O)c2ccc([N+](=O)[O-])o2)cc1)C(C)C,1%,0%,-7%,1%,x,x,x,-15%
Cc1csc(NC(=O)CSc2nc3ccccc3c(=O)[nH]2)n1,46%,4%,-13%,u,-3%,-11%,1.2%,4.6µM*
COc1cc(N)c(Cl)cc1NC(=O)c1ccccc1,-1%,2%,0%,18%,-13%,-5%,6.5%,-4%
OCCC1CN(C2CCC2)CCN1Cc1ccc(F)c(F)c1 (configuration not stated),-4%,u,-13%,0%,17%,x,x,-14%
CCCNCC(O)Cn1c2ccccc2n2c(=O)cc(C)c(C#N)c12 (configuration not stated),-8%,-3%,0%,16%,u,-12%,-13%,x
COc1ccc(-c2csc(NC(=O)COC(=O)c3ccco3)n2)cc1,-7%,12%,14%,u,10%,4%,-3.1%,u
Clc1ccc(SCCN2CCNCC2)cc1,22%,1%,12%,x,-2%,x,x,x
CSc1nc(Nc2cccc(C)c2)c(C#N)c(-c2ccccc2)n1,x,x,-15%,-8%[46.1 µM],x,-15%,-1.5%,15%[46.1 µM]
CCOc1ccc2nc(NC(=O)CS(=O)(=O)c3ccc(C)cc3)sc2c1,-15%,-1%,-6%,u,5%,u,-8.4%,13%
COc1ccc(-c2ccc(SCC(=O)Nc3cc(C)on3)nn2)cc1OC,21%,3%,70%[activator],-10%[14.3 µM],-37%,-2%,0.9%,u
CCN1C(=O)NC(=O)/C(=C/c2cc(C)n(-c3sc(C)c(C)c3C#N)c2C)C1=O,8%,-3%,-1%,u,u,u,-7.6%,u
O=C(NNC(=O)c1ccccc1Cl)c1ccco1,-3%,0%,21%,2%[46.1 µM],4%,x,x,u
C/C(CC(=O)Nc1cc(C)cc(C)c1)=N\NC(=O)c1ccccn1,-7%,17%,1%,-3%,5%,-6%,4.1%,u
CCOc1ccc(C(=O)N2CCC(c3noc(-c4ccc(S(=O)(=O)N5CCCC5)cc4)n3)CC2)cc1,x,x,-9%,u,x,u,-2.8%,u
CN(C)c1ccc(N/C=C/C(=O)C(F)(F)F)cc1,-28%,1%,64%[activator],-1%,x,x,x,27%[46.1 µM]
CCN(CC)C(=O)CSc1nc2cc3c(cc2c(=O)n1Cc1ccc2c(c1)OCO2)OCO3,8%,-1%,-13%,-3%,-75%,12%,-0.5%,0%
O=C(NCCN1CCNC1=O)C1CCC(=O)N(Cc2ccccc2F)C1 (configuration not stated),-1%,3%,1%,1%,23%,x,x,u
Cc1c(C2OC(=O)C3(CCCCC3)C(=O)C2(C)C)c(=O)n(-c2ccccc2)n1C (configuration not stated),-3%,2%,-1%,-9%,3%,14%,2.2%,-17%

# (more compounds)
SMILES,RE007 growth inh,SARS PLpro yeast,StopGo reporter,LASV entry inh,NS1 inh,Cruzain inh noDet,Cruzain Triton,Marburg entry inh
CCOC(=O)c1c(C)[nH]c(C(=O)OCC(=O)N(C)CC(=O)Nc2ccccc2Cl)c1C,1%,2%,0%,-8%,x,x,x,4%
CCOc1ccc(S(=O)(=O)NCc2cccs2)cc1,11%,2%,75%[activator],0%,-10%,9%,0.6%,-17%
COc1cccc(CNC(=O)Cc2c(C)c3ccc(OC)c(C)c3oc2=O)c1,x,x,-18%,-3%[46.1 µM],x,9%,-0.7%,11%[46.1 µM]
O=C(NCc1ccco1)c1cccn2c(=O)c3cc4ccccc4cc3nc12,x,-4%,x,x,8%,u,-3.0%,2%
C=CCOC(=O)Nc1ccc(Cl)cc1NC(=O)OCC=C,-6%,0%,-20%,1%,-38%,2%,-3.0%,u

# Screening data: PubChem, National Center for Advancing Translational Sciences (NCATS)
